BJeLR viability: BJeLR cell viability reduction; viability loss activity score, % (no concentration beside the values); AID 2275; actives 0.64% (n = 30,000); BJeLR fibroblasts viability, CellTiterGlo ATP luminescence, 48 h; HRASV12, hTERT and SV40 LT/ST transformed; in the data active = viability loss activity score above about 50%; about a fifth of its hits are not listed in these tables;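 note: higher score means fewer live cells and less ATP luminescence; stock transfer was 50 or 100 nL into about 30 µL; 0% = vehicle wells and 100% = a reference killing control; one replicate is shown; the record names a cut of 85%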
A1 inhib: A1 inhibition | MEF A1-2A-BIM cells, caspase-Glo luminescence, 3 h; percent of clofoctol signal, DMSO as zero | caspase activation, % (test concentration not listed) | actives 0.51% (n = 21,000) | AID 2241;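 active = most replicate scores above 10, or exactly half above 10 with mean activity above 10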;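 note: effector caspase 3 and 7 activity cleaving a DEVD luciferin substrate; 50 nL library stock added to about 30 µL; numbers are from one replicate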
* = called active by the depositor; . = not tested or not shown. Only part of the results is shown; count on the stated rates, not on these rows.

Sample of the layout (six entries):
SMILES,BJeLR viability,A1 inhib
Cc1noc(C)c1S(=O)(=O)Nc1cccc2c1O[C@H](CN(C)Cc1ccc(-c3ccccc3)cc1)[C@H](C)CN([C@H](C)CO)C2=O,0.0,.
Cc1noc(C)c1S(=O)(=O)N(C)C[C@H]1Oc2c(NS(=O)(=O)c3ccc(F)cc3)cccc2C(=O)N([C@@H](C)CO)C[C@H]1C,-2.9,.
O=C(COc1cccc(NC(=O)c2ccccc2)c1)NCCOc1ccccc1,-0.8,-0.1
CCC1=Nc2ccc(Br)cc2C(c2ccccc2)N1CC(=O)NN (centres undefined),-6.5,-1.6
COc1ccc(NC(=O)Nc2cccc3c2O[C@H](CN(C)Cc2ccc(Cl)c(Cl)c2)[C@H](C)CN([C@H](C)CO)C3=O)cc1,-1.5,.
Clc1cccc(Nc2nnc(-c3ccccc3)c3ccccc23)c1,-5.1,0.6

Main list, repeating the preview:
SMILES,BJeLR viability,A1 inhib
Cc1noc(C)c1S(=O)(=O)Nc1cccc2c1O[C@H](CN(C)Cc1ccc(-c3ccccc3)cc1)[C@H](C)CN([C@H](C)CO)C2=O,0.0,.
Cc1noc(C)c1S(=O)(=O)N(C)C[C@H]1Oc2c(NS(=O)(=O)c3ccc(F)cc3)cccc2C(=O)N([C@@H](C)CO)C[C@H]1C,-2.9,.
O=C(COc1cccc(NC(=O)c2ccccc2)c1)NCCOc1ccccc1,-0.8,-0.1
CCC1=Nc2ccc(Br)cc2C(c2ccccc2)N1CC(=O)NN (centres undefined),-6.5,-1.6
COc1ccc(NC(=O)Nc2cccc3c2O[C@H](CN(C)Cc2ccc(Cl)c(Cl)c2)[C@H](C)CN([C@H](C)CO)C3=O)cc1,-1.5,.
Clc1cccc(Nc2nnc(-c3ccccc3)c3ccccc23)c1,-5.1,0.6
C[C@@H]1CN([C@H](C)CO)C(=O)c2cc(NC(=O)CCCN(C)C)ccc2O[C@H]1CN(C)S(=O)(=O)c1ccc(Cl)cc1,-1.0,0.3
C=C(C(=O)O)[C@@H]1CC[C@H](C)[C@@H]2CC(=O)C(C)=C2C1,11,0.4
C[C@@H]1CN([C@@H](C)CO)C(=O)c2cccc(NC(=O)c3ccncc3)c2O[C@@H]1CN(C)C(=O)Nc1cccc2ccccc12,-0.6,.
CC(SCc1ccccc1)C(=O)Nc1cccnc1 (centres undefined),-1.0,0.0
C[C@@H]1CN([C@@H](C)CO)C(=O)c2cc(NS(C)(=O)=O)ccc2O[C@H]1CN(C)C,1.4,0.1
O=C(NC(=S)NCC1COc2ccccc2O1)c1ccc(Cl)cc1 (centres undefined),-0.1,-0.8
Cc1ccn2c(NC(=O)C(C)(C)Oc3ccc(Cl)cc3)c(-c3ccc(F)cc3)nc2c1,3.9,.
NNC(=O)CNc1ccc2c(c1)OCO2,-2.8,-0.8
CC1CC(C)CN(S(=O)(=O)c2ccc(F)c(C(=O)Nc3cccc(F)c3)c2)C1 (centres undefined),-0.8,0.0
CCN(CC)C(=S)Sc1ncnc2sc3c(c12)CCCC3,-2.7,0.4
CCC(C)NC(=O)c1ccc2c(=O)n(Cc3ccc(OC)cc3)c(=O)[nH]c2c1 (centres undefined),-1.0,.
Cc1ccccc1C1CC(=O)c2c(ccc3ccccc23)N1 (centres undefined),25,1.0
COc1ccc(NC(=O)Nc2ccc3c(c2)C(=O)N([C@@H](C)CO)C[C@@H](C)[C@@H](CN(C)Cc2ccc4c(c2)OCO4)O3)cc1,-2.1,0.0
Cc1noc(C)c1S(=O)(=O)Nc1ccc2c(c1)C(=O)N([C@H](C)CO)C[C@@H](C)[C@@H](CN(C)Cc1ccc(Cl)c(Cl)c1)O2,3.5,-0.8
C[C@H]1CN([C@@H](C)CO)C(=O)c2cc(NC(=O)c3ccncc3)ccc2O[C@H]1CN(C)C(=O)Nc1ccccc1,-1.0,1.0
O=C(NCCC1=CCCCC1)c1cc(-c2ccccn2)nc2ccccc12,-2.6,-0.6
CC1(C)S[C@@H]2[C@H](NC(=O)COc3ccccc3)C(=O)N2[C@H]1C(=O)O,11,0.9
COc1ccc(NC(C)=S)cc1C,0.3,-0.3
COc1ccc(S(=O)(=O)Nc2ccc3c(c2)C(=O)N([C@H](C)CO)C[C@H](C)[C@@H](CN(C)Cc2ccc(Oc4ccccc4)cc2)O3)cc1,1.1,-0.9
Cc1ccc(S(=O)(=O)Nc2ccc3c(c2)C(=O)N([C@@H](C)CO)C[C@H](C)[C@@H](CN(C)CC2CCCCC2)O3)cc1,0.4,-0.4
S=c1[nH]nc(C2CCCCC2)n1/N=C\c1ccncc1,5.9,-0.3
COc1ccc(OCCn2cc(C(=O)C(C)(C)C)c3ccccc32)cc1,1.6,.
C[C@@H]1CN([C@@H](C)CO)C(=O)c2cccc(NC(=O)C3CC3)c2O[C@H]1CN(C)C(=O)NC1CCCCC1,-1.8,.
Cc1n[nH]c(C)c1CCCOc1ccccc1,1.8,-0.8
Cc1ccc(S(=O)(=O)Nc2ccc3c(c2)C(=O)N([C@@H](C)CO)C[C@@H](C)[C@H](CN(C)S(=O)(=O)c2cccs2)O3)cc1,4.2,1.0
O=C1OC2(CCCCC2)OC(=O)C1=CNc1ccc(Cl)cc1C(F)(F)F,1.0,-0.4
c1ccc(CSc2nnc(-c3ccco3)n2-c2ccccc2)cc1,-6.0,-0.6
C[C@H](CO)N1C[C@H](C)[C@@H](CN(C)Cc2ccc3c(c2)OCO3)Oc2ccc(NS(=O)(=O)c3cccs3)cc2C1=O,-2.5,-0.2
CC(=O)Nc1ccc(C(=O)NN)cc1,-8.4,.
C[C@H]1CN([C@@H](C)CO)C(=O)c2cc(NC(=O)NC3CCCCC3)ccc2O[C@@H]1CN(C)S(=O)(=O)c1ccc(F)cc1,-2.4,0.2
COc1ccc(NC(=O)N(C)C[C@H]2Oc3c(NC(=O)NC(C)C)cccc3C(=O)N([C@@H](C)CO)C[C@@H]2C)cc1,-1.6,.
Cc1noc(C)c1NC(=O)Nc1cccc2c1O[C@H](CN(C)S(=O)(=O)c1ccc(Cl)cc1)[C@@H](C)CN([C@H](C)CO)C2=O,3.5,.
COc1ccc(C2C(C(=O)N3CCCCC3)c3ccccc3C(=O)N2c2ccc(OC)cc2)cc1 (centres undefined),7.2,.
C[C@@H]1O[C@@H](O[C@H]2[C@H](O[C@H]3CC[C@@]4(C)C(CC[C@]5(C)C4CC=C4C6CC(C)(C)CC[C@]6(C(=O)O)CC[C@]45C)[C@]3(C)CO)OC[C@H](O)[C@@H]2O)[C@H](O)[C@H](O)[C@H]1O (some centres undefined),-1.9,0.1
C[C@@H]1CN([C@H](C)CO)C(=O)c2cccc(NS(C)(=O)=O)c2O[C@H]1CN(C)C(=O)Nc1ccc2c(c1)OCO2,5.1,.
C[C@H](CO)N1C[C@H](C)[C@@H](CN(C)S(=O)(=O)c2ccccc2)Oc2c(NC(=O)c3nc4ccccc4s3)cccc2C1=O,-2.7,.
COc1ccc(S(=O)(=O)N(C)C[C@H]2Oc3c(NC(=O)NC4CCCCC4)cccc3C(=O)N([C@H](C)CO)C[C@H]2C)cc1,-3.4,.
Cc1cc(NC(=O)c2ccc3c(c2)NC(=O)c2ccccc2S3)ccc1Br,17,15*
C[C@H]1CN([C@@H](C)CO)C(=O)c2cc(NS(=O)(=O)c3ccccc3)ccc2O[C@@H]1CN(C)Cc1ccccc1,0.9,1.0
CCc1ccc(N2C(=O)Nc3ccccc3N2O)cc1,-1.8,-0.2
COC(=O)C1=C(O)CSC1=Nc1cccc(C(F)(F)F)c1,0.3,0.2
C[C@@H]1CN([C@@H](C)CO)C(=O)c2cc(NC(=O)Cc3cn(C)c4ccccc34)ccc2O[C@@H]1CN(C)C(=O)Nc1ccc(C(F)(F)F)cc1,4.9,0.3
COc1cccc(N2CCN(C(=O)c3cc4c(Cl)nc5ccc(C)cc5c4s3)CC2)c1,2.0,.
CC(C)NC(=O)N(C)C[C@H]1Oc2ccc(NC(=O)Nc3ccccc3)cc2C(=O)N([C@@H](C)CO)C[C@@H]1C,-2.7,1.0

(cont.)
SMILES,BJeLR viability,A1 inhib
COc1cccc(C2CC(c3cccs3)=NN2C(=O)CSc2nncn2C)c1OC (centres undefined),-3.1,-0.3
CNC[C@@H]1Oc2c(NC(=O)Nc3ccc4c(c3)OCO4)cccc2C(=O)N([C@H](C)CO)C[C@H]1C,0.3,.
Cc1noc(C)c1NC(=O)Nc1cccc2c1O[C@@H](CN(C)S(=O)(=O)c1cccs1)[C@@H](C)CN([C@@H](C)CO)C2=O,7.7,.
C[C@H](CO)N1C[C@H](C)[C@H](CN(C)S(=O)(=O)c2cn(C)cn2)Oc2ccc(NC(=O)Cc3ccccc3)cc2C1=O,0.6,0.6
COc1cccc(-c2cc(=O)c3cc(OC)ccc3o2)c1,14,-6.7
COc1ccc(CN(C)C[C@H]2Oc3ccc(NC(=O)C4CC4)cc3C(=O)N([C@H](C)CO)C[C@H]2C)cc1,-2.1,0.2
O=C(O)c1ccc(CNCc2ccc(Cl)cc2)cc1,-9.4,0.4
Cc1ccc(CCNc2ccccc2)cn1,2.0,.
C[C@@H]1CN([C@H](C)CO)C(=O)c2cc(NC(=O)Nc3cccc4ccccc34)ccc2O[C@@H]1CN(C)Cc1ccncc1,0.6,0.6
Cc1ccc(C(=O)Nc2cc3ccccc3oc2=O)cc1,47,-5.4
COc1ccc(S(=O)(=O)Nc2cccc3c2O[C@H](CN(C)S(=O)(=O)c2ccc(C)cc2)[C@H](C)CN([C@@H](C)CO)C3=O)cc1,2.5,.
C[C@@H]1CN([C@@H](C)CO)C(=O)c2cc(NS(=O)(=O)c3ccc(F)cc3)ccc2O[C@H]1CN(C)Cc1ccccc1,0.9,0.3
COc1ccc(CCC(=O)c2c(O)cc(O[C@@H]3O[C@H](CO)C(O)[C@H](O)C3O[C@@H]3O[C@@H](C)[C@H](O)[C@@H](O)[C@H]3O)cc2O)cc1O (some centres undefined),-1.4,-0.7
CCCCNc1cc(C(=O)O)cc(S(N)(=O)=O)c1Oc1ccccc1,-6.1,-1.0
Cc1cc(NC(=O)Nc2ccccc2)c(C(F)(F)F)o1,4.1,.
Cc1ccc(S(=O)(=O)N(C)C[C@H]2Oc3ccc(NS(C)(=O)=O)cc3C(=O)N([C@H](C)CO)C[C@H]2C)cc1,0.9,0.4
N#C/C(=C\Nc1cccc(Cl)c1)S(=O)(=O)c1ccc(Cl)cc1,-1.3,0.3
CCOC(=O)c1cc(C#N)c(N2CCC(C(=O)OCC)CC2)nc1C(F)(F)F,-3.7,-0.7
Cc1cc(C(=O)Nc2cccc3c2O[C@@H](CN(C)Cc2ccc(Cl)c(Cl)c2)[C@@H](C)CN([C@H](C)CO)C3=O)n(C)n1,0.9,.
COC(=O)c1sc(C(F)(F)F)c(-c2ccccc2)c1S(=O)(=O)NC(C)(C)C,-4.0,0.7
C[C@@H]1CN([C@H](C)CO)C(=O)c2cc(NC(=O)Nc3ccc4c(c3)OCO4)ccc2O[C@@H]1CN(C)Cc1ccc2c(c1)OCO2,1.4,-0.4
CC(C)NC(=O)Nc1cccc2c1O[C@H](CN(C)C)[C@@H](C)CN([C@@H](C)CO)C2=O,2.1,.
COc1ccccc1C(CC(=O)N1CCCC1)c1ccc2c(c1)OCO2 (centres undefined),-0.8,.
Clc1cccc(Nc2nnc(Cc3cccnc3)c3ccccc23)c1,-4.9,2.0
COc1ccc(NC(=O)Nc2ccc3c(c2)C(=O)N([C@H](C)CO)C[C@@H](C)[C@H](CN(C)Cc2ccncc2)O3)cc1,-0.6,-0.6
O=c1c(Cc2ccccc2)c(O)c2ccccc2n1-c1ccccc1,3.0,-0.1
COc1ccc(C2NC(c3ccc(OC)cc3)C(C)C(O)(Cc3ccccc3)C2C)cc1 (centres undefined),4.5,-0.4
Cc1[nH]c(-c2ccc(F)cc2)cc1C(=O)NCCc1ccc(S(N)(=O)=O)cc1,-1.4,-0.1
C[C@H]1CN([C@@H](C)CO)C(=O)c2cccc(NC(=O)c3ccncc3)c2O[C@@H]1CN(C)Cc1ccc(C(F)(F)F)cc1,1.5,.
COc1ccc(NC(=O)Nc2cccc3c2O[C@@H](CN(C)C(=O)NC2CCCCC2)[C@H](C)CN([C@@H](C)CO)C3=O)cc1,1.8,.
COc1ccc(S(=O)(=O)N(C)C[C@@H]2Oc3ccc(NC(=O)CCC(F)(F)F)cc3C(=O)N([C@@H](C)CO)C[C@H]2C)cc1,-0.3,-0.4
C[C@H]1CN([C@@H](C)CO)C(=O)c2cccc(NC(=O)Nc3ccc(C(F)(F)F)cc3)c2O[C@@H]1CN(C)Cc1ccc(Cl)c(Cl)c1,3.2,.
C[C@@H]1CN([C@@H](C)CO)C(=O)c2cccc(NC(=O)c3ccncc3)c2O[C@H]1CN(C)CC1CCCCC1,0.5,.
CNC[C@@H]1Oc2ccc(NC(=O)Cc3ccccc3)cc2C(=O)N([C@@H](C)CO)C[C@@H]1C,1.9,0.0
